Source: PubChem
NPR1 antag = Natriuretic polypeptide receptor (hNpr1) antagonism - Primary qHTS | Atrial natriuretic peptide receptor 1 (Homo sapiens), P16066 | HEK293 hNpr1 GloSensor cGMP, ANP-stimulated luminescence | Potency, µM (top dose mostly 46.3 µM), inactives show at the highest dose activity change, negative = inhibition, usual class: inhibitors | hit rate 1.6% among 76,000; active = well fitted inhibition curve with a large enough effect; inconclusive = small, poorly fitted or top-dose-only effect; inactive = no such curve, though single readings can be large or run the other way;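 also: nearly all actives have a fitted effect of over 60% in size; nearly all hits also lower the signal before the agonist is added; a reference antagonist and vehicle were the controls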
Target sequence (P16066 whole entry, looked up): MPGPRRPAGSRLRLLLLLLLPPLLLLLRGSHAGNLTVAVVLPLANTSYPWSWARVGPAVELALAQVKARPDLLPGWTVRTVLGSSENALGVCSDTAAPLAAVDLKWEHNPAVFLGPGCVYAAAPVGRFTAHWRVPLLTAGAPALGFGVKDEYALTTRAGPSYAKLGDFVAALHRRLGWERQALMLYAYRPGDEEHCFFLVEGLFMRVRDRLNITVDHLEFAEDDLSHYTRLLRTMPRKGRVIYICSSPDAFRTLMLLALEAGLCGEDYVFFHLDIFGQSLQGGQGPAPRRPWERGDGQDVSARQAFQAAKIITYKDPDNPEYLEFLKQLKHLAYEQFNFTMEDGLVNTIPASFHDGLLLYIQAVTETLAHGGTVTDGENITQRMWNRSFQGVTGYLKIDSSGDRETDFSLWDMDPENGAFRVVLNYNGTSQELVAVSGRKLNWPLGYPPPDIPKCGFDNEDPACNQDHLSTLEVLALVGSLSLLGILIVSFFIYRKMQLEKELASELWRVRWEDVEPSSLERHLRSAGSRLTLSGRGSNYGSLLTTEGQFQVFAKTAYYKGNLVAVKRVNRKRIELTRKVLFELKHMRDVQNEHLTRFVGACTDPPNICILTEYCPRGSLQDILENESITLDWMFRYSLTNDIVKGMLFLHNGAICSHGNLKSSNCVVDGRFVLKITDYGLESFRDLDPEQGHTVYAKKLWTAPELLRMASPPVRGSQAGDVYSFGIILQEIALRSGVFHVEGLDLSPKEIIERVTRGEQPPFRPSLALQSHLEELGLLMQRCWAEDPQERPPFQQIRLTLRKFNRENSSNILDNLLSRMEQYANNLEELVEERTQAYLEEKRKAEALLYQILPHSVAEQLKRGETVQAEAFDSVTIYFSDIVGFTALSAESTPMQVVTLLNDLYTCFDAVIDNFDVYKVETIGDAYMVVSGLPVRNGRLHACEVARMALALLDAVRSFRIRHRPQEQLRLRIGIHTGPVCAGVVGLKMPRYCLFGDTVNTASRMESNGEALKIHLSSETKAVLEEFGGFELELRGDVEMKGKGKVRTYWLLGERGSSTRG
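HEK293 cells stably expressing human Npr1 and cGMP GloSensor pGS-40F, loaded 2 h with 2% GloSensor reagent, given compound 30 min at room temperature. Luminescence read before and 20 min after 0.1 nM hNppA.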
* hit, by the source's call; [ ] = dose if it differs, or a comment. % is scaled to controls: 0 for no effect and ±100 for the full control effect; potency is read from the fitted curve at half-maximal effect. An excerpt; the hit share may differ from the screen's.

Results for O=C(NCCN1CCOC1=O)c1cn(Cc2ccccc2C(F)(F)F)nn1 ?
NPR1 antag: 3%

What do the screens show for `Cc1ccc(N2Cc3c(ncnc3N3CCN(C)CC3)N(C)CC2=O)cc1`?
NPR1 antag: -2%

What do the screens show for `COc1ccccc1CN1CC[C@@H]2OCC(=O)N(C(C)C)[C@H]2CC1`?
NPR1 antag: -24%[70.6 µM]

How did Cc1ccc(C(=O)N2CCCC(c3nc(CCOCC4CCCC4)no3)C2)cn1 (configuration not stated) do in these assays?
NPR1 antag: 1%

How did COc1ccccc1CNC(=O)c1cc2c(N3CCCC3)nc(C)cn2n1 do in these assays?
NPR1 antag: 5%

What do the screens show for `O=C(Cc1cccc(Cl)c1)NCc1c[nH]c2ncccc12`?
NPR1 antag: -1%[70.6 µM]

How did Cc1nc2c(c(-c3ccc(O)cc3)n1)CN(C(=O)c1ccc(C(F)(F)F)cc1)CC2 do in these assays?
NPR1 antag: -24%

What do the screens show for `O=C1NCCCc2[nH]c(CCSCc3ccc(Cl)cc3)nc21`?
NPR1 antag: -1%

What do the screens show for `Cc1noc2c(NC3CCN(C)CC3)cc(-c3ccccn3)nc12`?
NPR1 antag: -1%[70.6 µM]

How did Cc1cc(C[C@@H]2COC[C@@H]2NC(=O)c2c(C)cc(C)n(C)c2=O)on1 do in these assays?
NPR1 antag: 3%

How did O=C1NCCCCCCN(S(=O)(=O)c2ccccc2)[C@H]2CCC[C@@H]12 do in these assays?
NPR1 antag: -4%

How did Cc1nn(-c2cccc(Br)c2)c(C)c1[C@@H]1C=C[C@@H](NC(=O)CC2(CC(=O)O)CCCC2)C1 do in these assays?
NPR1 antag: 0%

How did COc1ccc(CN2C(=O)[C@@H]3C[C@@H](O)CN3C3(CN(C4CCOCC4)C3)C2=O)cc1 do in these assays?
NPR1 antag: 4%[70.6 µM]

Results for O=C(NCc1cccnc1)C1CN(S(=O)(=O)c2ccccc2)CC12CCCCC2 (configuration not stated) ?
NPR1 antag: -3%

Results for O=C(c1ccncc1)N1CCC(N2C(=O)C3(CCCCC3)C2c2ccncc2)CC1 (configuration not stated) ?
NPR1 antag: 3%

Results for COc1cccc(CNC(=O)c2ccc(Cn3ccn4nc5c(c4c3=O)CCCC5)cc2)c1 ?
NPR1 antag: 0%

How did CN(C)c1ccc(C(=O)N2CCN(S(C)(=O)=O)[C@H](C(=O)N[C@@H](CC3CCCCC3)C(N)=O)C2)cc1 do in these assays?
NPR1 antag: 4%

Results for COc1ccc(F)c(-c2nc(CN(C)C(C)c3cccs3)c(C)o2)c1 (configuration not stated) ?
NPR1 antag: 4%

Results for O=C(COc1ccccc1)Nc1ccc2n(c1=O)C[C@H]1C[C@@H]2CN(C(=O)c2ccccn2)C1 ?
NPR1 antag: 0%

How did CCOc1ccc2c(n1)CCN(C(=O)C1CC1)C2 do in these assays?
NPR1 antag: 1%

What do the screens show for `O=C1CC(C(=O)N2CCc3nc(-c4ccccc4)[nH]c3C2)C2(CCCCC2)O1` (configuration not stated)?
NPR1 antag: 6%

Results for COc1ccccc1C(=O)Nc1ccnn1C1CCN(C(=O)[C@@H](N)CO)CC1 ?
NPR1 antag: 4%

What do the screens show for `O=C(O)C1CCc2nc(N3CCN(C(=O)C4CCC4)CC3)sc2C1` (configuration not stated)?
NPR1 antag: -1%

How did COc1cccc(C(=O)N2CC(Oc3ccc(-c4nc(-c5ccccc5)no4)cc3)C2)c1 do in these assays?
NPR1 antag: -10%

How did O=C(CN1CC[C@H](N2CCOCC2)[C@H](CCCO)C1)NCc1ccccc1 do in these assays?
NPR1 antag: 2%

Results for O=C(c1ccsc1)N1CCC(N(C(=O)C2CC2)C2CCOCC2)CC1 ?
NPR1 antag: -2%

How did O=C(C1CCCC1)N1CCC2(CC1)C(=O)NCN2Cc1ccc(Cl)cc1 do in these assays?
NPR1 antag: 13%

Results for Cn1cnc2cc(-c3cccc4[nH]ccc34)cc(C(=O)NCc3cccnc3)c21 ?
NPR1 antag: 1%[70.6 µM]

What do the screens show for `CCNC(=O)C(C)(C)Oc1nn(Cc2cccc(Cl)c2)c2ccccc12`?
NPR1 antag: -19%[70.6 µM]

Results for CCCCN(Cc1ccc(S(=O)(=O)NC)cc1)Cc1ccco1 ?
NPR1 antag: -8%

A draw from above in order of heavy-atom count, high to low:
Results for Cn1cnc2cc(-c3cccc4[nH]ccc34)cc(C(=O)NCc3cccnc3)c21 ?
NPR1 antag: 1%[70.6 µM]

How did O=C(CN1CC[C@H](N2CCOCC2)[C@H](CCCO)C1)NCc1ccccc1 do in these assays?
NPR1 antag: 2%

What do the screens show for `CCNC(=O)C(C)(C)Oc1nn(Cc2cccc(Cl)c2)c2ccccc12`?
NPR1 antag: -19%[70.6 µM]

Results for O=C(c1ccsc1)N1CCC(N(C(=O)C2CC2)C2CCOCC2)CC1 ?
NPR1 antag: -2%

What do the screens show for `O=C(O)C1CCc2nc(N3CCN(C(=O)C4CCC4)CC3)sc2C1` (configuration not stated)?
NPR1 antag: -1%

Results for CCCCN(Cc1ccc(S(=O)(=O)NC)cc1)Cc1ccco1 ?
NPR1 antag: -8%

New compounds follow:
Results for CC(=O)N1CCCC1c1nc(C2CN(S(=O)(=O)c3cccs3)C2)no1 (configuration not stated) ?
NPR1 antag: 8%

Results for COc1cc(=O)n2c(c1C(=O)Nc1ccc(C)cc1)CCCC2 ?
NPR1 antag: -5%

Results for COc1ccc(NC(=O)N2CCc3c(C(=O)NCCCN4CCCC4=O)cccc32)cc1 ?
NPR1 antag: 11µM*

Results for c1cc(-c2noc([C@@H]3CCCN3C3CCC3)n2)cc(N2CCOCC2)n1 ?
NPR1 antag: -2%[70.6 µM]

What do the screens show for `COc1cc2c(cc1OC)C(C[C@H]1CN(C(=O)c3ccc(F)cc3)CC[C@H]1CC(=O)O)=NCC2`?
NPR1 antag: 8%

Results for Cc1nn(-c2ccc(F)cc2)c(Oc2ccccc2)c1CCC(=O)N(C)C(C)C ?
NPR1 antag: -10%

Results for O=C([C@@H]1C[C@H](Oc2ccccc2)CN1C(=O)C1CC1)N1CCCC1 ?
NPR1 antag: -2%

What do the screens show for `O=C(Nc1ccccn1)[C@@H]1C[C@@H](c2ccc(F)cc2)N([S+](=O)([O-])c2ccccc2)C1`?
NPR1 antag: 1%[70.6 µM]

Results for CCO[C@H]1CN(C(=O)c2cc(N3CCCCC3)ccc2Cl)C[C@@H]1O ?
NPR1 antag: 0%

Results for O=C(NCc1nnc2cc(-c3nc(C4CC4)no3)ccn12)C1CCC1 ?
NPR1 antag: 4%

Results for COc1ccc(C(=O)N[C@@H]2CCC[C@@H]2C(=O)N2CCCCC2)cc1 ?
NPR1 antag: -6%

Results for CN(C)C(=O)NC[C@@H]1CC[C@H]2C[C@@H]1C2(C)C ?
NPR1 antag: 4%[70.6 µM]

How did Fc1cccc(CNc2ccc3nnc(-c4ccccn4)n3n2)c1 do in these assays?
NPR1 antag: -3%[70.6 µM]

How did COCc1cc(CC2(NCC(C)(C)C)COC2)no1 do in these assays?
NPR1 antag: -1%[70.6 µM]

Results for CCOCC(O)Cn1cnc(-c2ccccc2)c1-c1cccc(OC)c1F (configuration not stated) ?
NPR1 antag: 0%

Results for Clc1ccccc1C1Cn2nnc(-c3noc(C4(c5ccccc5)CC4)n3)c2CO1 (configuration not stated) ?
NPR1 antag: 12%

How did O=C(CN1CC2CC(C1)[C@H]1CCCC(=O)N1C2)NCc1cccc(Cl)c1 (some centres not stated) do in these assays?
NPR1 antag: -6%

What do the screens show for `COc1cccc(S(=O)(=O)N2CC(n3cc(C(=O)NCC4CC4)nn3)C2)c1`?
NPR1 antag: 3%

How did CCCc1cc(C(=O)N2CCC(n3nccc3NC(=O)c3ccccc3C)CC2)n(C)n1 do in these assays?
NPR1 antag: 7%

How did CC(C)CNC(=O)C1Cn2cccc2C(=O)N1Cc1ccccc1 (configuration not stated) do in these assays?
NPR1 antag: -8%

What do the screens show for `COc1cccc([C@H]2CN(C(=O)CCn3ccc(=O)[nH]c3=O)C[C@@H]2N)c1`?
NPR1 antag: 7%

What do the screens show for `O=C(OCc1ccccc1)N1CCOCC12CCN(Cc1ccc(F)cc1)CC2`?
NPR1 antag: -12%[70.6 µM]

What do the screens show for `CN(C)CCCOCC1(C)COc2ccc(C(=O)N3CCOCC3)cc2N1` (configuration not stated)?
NPR1 antag: -1%[70.6 µM]

What do the screens show for `CC(=O)N1CC[C@H](c2nc3ccc(F)cc3[nH]2)C1`?
NPR1 antag: 3%[70.6 µM]

Results for CC(=O)N1CC2(CCN(Cc3cncn3C3CC3)CC2)CC1C(=O)O (configuration not stated) ?
NPR1 antag: 4%

Results for COc1ccc(Cn2c3c(c(=O)n2Cc2ccccc2)CCN(C(=O)c2ccnn2C)C3)cc1 ?
NPR1 antag: -1%

What do the screens show for `CC1(NC(=O)C2CC2)CN(Cc2nc(-c3ccccc3)cs2)C1`?
NPR1 antag: inconclusive

What do the screens show for `O=C(COc1ccccc1)NCCC1CCN(C(=O)Nc2ccccc2)CC1`?
NPR1 antag: 2%

Results for Cc1ccccc1-c1ncc2c(n1)OCCN(c1ccccc1)C2=O ?
NPR1 antag: 3%[70.6 µM]

What do the screens show for `O=C(c1cccc(Cl)c1)N1CCC(n2cc(-c3nc(-c4ccccc4)no3)nn2)CC1`?
NPR1 antag: inconclusive

Reprinted at random: 2 records from the list, in no set order.
What do the screens show for `COc1cccc([C@H]2CN(C(=O)CCn3ccc(=O)[nH]c3=O)C[C@@H]2N)c1`?
NPR1 antag: 7%

Results for COc1ccc(Cn2c3c(c(=O)n2Cc2ccccc2)CCN(C(=O)c2ccnn2C)C3)cc1 ?
NPR1 antag: -1%

(further entries)
How did Cn1nc2n(c1=O)CCN(C(=O)c1ccc(OC(F)(F)F)cc1)CC2 do in these assays?
NPR1 antag: 0%

How did COc1ccc(CNC(=O)CC[C@H]2CNC(=O)[C@@H]3[C@@H](CCN3Cc3ccc(C(=O)O)cc3)N2C)cc1 do in these assays?
NPR1 antag: 2%

How did Cc1nc(-c2c3n(c(=O)n(CC(=O)Nc4ccc(C)c(Cl)c4)c2=O)CCCCC3)no1 do in these assays?
NPR1 antag: -17%

How did COc1cccc([S+](=O)([O-])N2CCc3nc(C4CC4)nc(-c4ccc(Cl)cc4)c3CC2)c1 do in these assays?
NPR1 antag: 23%

What do the screens show for `Cc1ccc(C(=O)N[C@H]2CO[C@H]3[C@@H]2OC[C@@H]3n2cc(CC3CCCCC3)nn2)cc1`?
NPR1 antag: -4%[70.6 µM]

How did O=C(NCc1ccccn1)c1ccc(-c2ccc(N3CCCCC3)nc2)cc1 do in these assays?
NPR1 antag: -26%

Results for Cc1ccccc1N1Cc2c(NCCCc3ccccc3)ncnc2N(C)CC1=O ?
NPR1 antag: -2%

How did CN(Cc1cccs1)Cc1cccn1C do in these assays?
NPR1 antag: 0%[122 µM]

How did COc1ccc(CN2CCn3c(nnc3C3CCCNC3)C2)cc1 (configuration not stated) do in these assays?
NPR1 antag: 11%[70.6 µM]

How did COc1ccc(CNC(=O)c2cc3n(n2)CC(c2ccc(Cl)cc2)OC3)c(OC)c1 (configuration not stated) do in these assays?
NPR1 antag: -15%

What do the screens show for `O=C(CN1CCN(c2ncncc2-c2nc(-c3ccccc3)no2)CC1)N1CCCCC1`?
NPR1 antag: -10%

Results for CC(C)N(C)C(=O)c1cc(-c2cnc(C(C)(C)C)nc2)nc2cc(F)ccc12 ?
NPR1 antag: 3%

What do the screens show for `COc1cccc(Nc2ccc3nnc(-c4cc(OC)ccn4)n3n2)c1`?
NPR1 antag: inconclusive

Results for COC[C@@H]1CN(C(=O)CCn2cccn2)C[C@H]1c1ccncc1 ?
NPR1 antag: -7%

What do the screens show for `CCn1nccc1C(=O)N1CCCCCC1c1nc(C2CC2)no1` (configuration not stated)?
NPR1 antag: -3%

How did CN(Cc1ccc(-c2ccccc2)cc1)C(=O)c1ccccc1Cl do in these assays?
NPR1 antag: -8%

How did COc1ccccc1Nc1ncc2c(n1)CN(C(=O)c1ccccc1)CCN2 do in these assays?
NPR1 antag: 32µM*

Results for COCCC(=O)N1CCC(Oc2nccnc2N2CCc3ccccc32)C1 (configuration not stated) ?
NPR1 antag: -7%

How did CCc1nnc([C@@H]2CC(F)(F)CN2C(=O)c2noc(C)c2COC)o1 do in these assays?
NPR1 antag: -1%

How did C=CCn1ncc(CN2CCC(c3nnc(Cn4ccnc4C)n3C)CC2)c1C do in these assays?
NPR1 antag: -4%

How did CCC(C)N1Cc2cc(NC(=O)Cc3cccc(OC)c3)ccc2OCC1=O (configuration not stated) do in these assays?
NPR1 antag: -26%

How did COc1cccc(S(=O)(=O)N2CCCCC2c2n[nH]c(C)n2)c1 (configuration not stated) do in these assays?
NPR1 antag: 4%

How did Cc1ccc([S+](=O)([O-])N2CCC(N3CCCNC3=O)CC2)cc1 do in these assays?
NPR1 antag: 1%

Results for COc1ncccc1CN1CC[C@@H]2OCC(=O)N(Cc3ccccc3)[C@H]2CC1 ?
NPR1 antag: -30%[70.6 µM]

What do the screens show for `COc1ccc(-c2nc(C)nc3c2CCN([S+](=O)([O-])c2c(C)noc2C)CC3)cc1`?
NPR1 antag: -13%

Results for Cc1cccc(Cl)c1NC(=O)CN1C(=O)NC2(CCC(C(C)(C)C)CC2)C1=O (configuration not stated) ?
NPR1 antag: 0%

Results for Cc1noc(C)c1CC(=O)NCC1Cn2cccc2C(=O)N1C (configuration not stated) ?
NPR1 antag: -1%

How did CNC(=O)c1[nH]nc2c1C(c1c(C)nc3ccc(Cl)cn13)CC(=O)N2 (configuration not stated) do in these assays?
NPR1 antag: 2%

How did COc1ccc(C(=O)N2CCC(n3cc(-c4nc(C(C)C)no4)nn3)CC2)c(OC)c1 do in these assays?
NPR1 antag: inconclusive

What do the screens show for `CCC(=O)N1CCc2c(sc3ncnc(N4CCN(C)CC4)c23)C1`?
NPR1 antag: 5%

How did COc1ccc(-c2ccnc(N[C@H]3CO[C@H]4[C@@H]3OC[C@H]4OC(=O)Nc3cccc(C(F)(F)F)c3)n2)cc1 do in these assays?
NPR1 antag: -19%
